Bioassay records (PubChem)
CSC inhib = cancer stem cell inhibition; cancer stem cell-like cells viability, luminescence; AID 2717; hit rate 1.1% among 300,000; inhibition, % at 7.5 µM;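 active means mean at 75% or more and at least half the replicates too; inconclusive means mean and replicates disagree; tested in HMLE shEcad cells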;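 further: 0% = median of negative and 100% = median of positive control wells; the first replicate is given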
MT1-MMP act inh = MT1-MMP (human) activation inhibition; P50281; HT1080 RFP-PRO-GFP cells, GFP/RFP ratio fluorescence, overnight; percent of plate control window, DMSO zero; GFP/RFP ratio change, % at 20 µM; hit rate 0.061% among 360,000;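 active means GFP/RFP ratio change of at least 30% with cell ATP level not reduced by more than half and red fluorescence within 50% of control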; further: strong numbers were not always called active
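Assay system: HT1080 cells carrying an RFP-PRO-GFP reporter | Dosing: Single dose of 20 µM compound, 1% DMSO final | Incubation: Cells overnight before dosing, compound overnight, 37 °C, 5% CO2 | Evaluation: GFP/RFP fluorescence ratio | Control set: DMSO and RFP-L50D-GFP cell wells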
Rce1 inh = yeast Ras-converting enzyme inhibition; Q03530; yeast membranes, quenched prenylated peptide cleavage fluorescence; calls only; hit rate 0.27% among 290,000;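 active means fall in fluorescence gain of 50% or more versus controls, with final raw signal at or below 3038400; inconclusive means same 50% fall but final raw signal above 3038400; inactive means fall in fluorescence gain under 50%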;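 further: plate controls were neutral control wells for no effect and wells lacking membranes for full effect; tested at 10 µM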
Yeast UUG start = yeast start codon fidelity modulation | S. cerevisiae UUG-firefly luciferase reporter, luminescence/redox ratio | activity score, % at 18.7 µM | hit rate 0.13% among 350,000;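 active means replicate mean at a twofold rise or more, about +100% in these data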;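 further: firefly luciferase made from a UUG start codon reports start codon fidelity; reporter light over untreated wells divided by growth signal over untreated wells; some hits fall short of that in this replicate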
Env fusion inh = HIV envelope-mediated fusion inhibition; AID 651610; inhibition, % at 12.3 µM; hit rate 1.1% among 360,000; HeLa-JRFL Env/CEM21 cell fusion, luciferase;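 active means mean replicate inhibition score of at least 50 and every replicate individually at or above 50; inconclusive means only one of the two criteria met; inactive means mean below 50 and not all replicates reaching 50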;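 further: 0% = plate neutral controls and 100% = maraviroc near 300 nM; one replicate is shown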
PABP polyA inh = blocks human PABP binding to poly(A) RNA | P11940 | fluorescence polarization | inhibition, % at 35 µM | hit rate 1% among 290,000 | AID 2014;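 active means 50% or more with normal probe brightness, or confirmed in later tests; inconclusive means above 50% with abnormal brightness, or retests that disagree; inactive means below 50% or failed in later tests; about a fifth of its hits are not listed in these tables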;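 further: calls also rest on retests at 20 µM and on dose response follow-up; controls were probe without protein and protein plus probe with vehicle; some compounds called inactive have numbers as strong as hits; many hits fall short of the cut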
Target sequence (P11940 whole entry, looked up): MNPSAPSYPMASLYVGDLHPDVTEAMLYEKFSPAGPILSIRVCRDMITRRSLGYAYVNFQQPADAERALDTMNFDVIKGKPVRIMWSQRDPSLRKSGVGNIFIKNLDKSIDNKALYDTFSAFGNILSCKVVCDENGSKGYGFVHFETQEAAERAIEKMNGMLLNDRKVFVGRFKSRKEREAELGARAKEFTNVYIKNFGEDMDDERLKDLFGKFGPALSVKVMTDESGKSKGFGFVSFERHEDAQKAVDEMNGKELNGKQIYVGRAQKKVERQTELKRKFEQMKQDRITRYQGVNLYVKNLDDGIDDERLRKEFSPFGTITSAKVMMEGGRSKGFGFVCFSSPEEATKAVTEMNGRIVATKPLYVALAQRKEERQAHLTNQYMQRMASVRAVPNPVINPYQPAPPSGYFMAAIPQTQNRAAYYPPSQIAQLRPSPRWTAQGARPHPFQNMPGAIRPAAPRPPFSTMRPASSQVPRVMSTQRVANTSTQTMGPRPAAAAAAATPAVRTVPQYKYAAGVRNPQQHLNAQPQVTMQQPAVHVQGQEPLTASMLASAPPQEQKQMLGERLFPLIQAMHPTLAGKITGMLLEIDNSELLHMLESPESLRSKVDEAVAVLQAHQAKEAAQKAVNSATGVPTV
eIF4H FP inh = inhibitors of RNA binding by human eIF4H; Q15056; inhibition, % at 35 µM; hit rate 0.94% among 290,000; eIF4H fluorescence polarization binding assay;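 active means 50% or more with normal probe brightness, or confirmed in later tests; inconclusive means above 50% with abnormal brightness, or retests that disagree; inactive means below 50% or failed in later tests; about a fifth of its hits are not listed in these tables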;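 further: calls also rest on retests at 20 µM and on dose response follow-up; 0% = protein and probe with vehicle and 100% = probe without protein; strong numbers were not always called active; many hits fall short of the cut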
eIF4H FP inh retest = also measured in eIF4H FP inh; calls as there; inhibition, %; compound at 20 µM; confirmation average;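 mean of two retest wells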
PABP polyA inh retest = further read-out of PABP polyA inh, marked with its call; inhibition, %; compound at 20 µM; confirmation repeats;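 mean of two retest wells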
MT1-MMP act inh RFP = recorded beside MT1-MMP act inh, whose call it bears; RFP signal change, %; measured here: RFP expression control read;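 0 = vehicle wells; hits needed this value within 50% of zero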
The depositor's hits bear a star; i = inactive; ? = inconclusive; nt = no result given.

SMILES	CSC inhib	MT1-MMP act inh	MT1-MMP act inh RFP	Rce1 inh	Yeast UUG start	Env fusion inh	PABP polyA inh	eIF4H FP inh	others
CCCCOC(=O)Cn1c(=N)n(CCN(CC)CC)c2ccccc21	0.5	8.2	7.1	i	-5.4	nt	4.1	11.9
Cc1ccc(C(=O)N2N=C(c3ccc(NS(C)(=O)=O)cc3)CC2c2cccs2)cc1 (stereo not given)	1.7	-9.2	-9.8	i	1.6	-1.0	0.5	-11.6
COc1ccc(NC(=O)c2cc(C3CCCCN3C(=O)c3ccccc3)on2)c(C)c1 (stereo not given)	nt	-0.2	-2.8	nt	4.4	11.4	nt	nt
COc1ccc(-n2nc(C(=O)NCC(=O)N3CCOCC3)c3ccccc3c2=O)cc1OC	8.6	-1.7	-5.3	i	-2.9	-5.9	-6.7	-6.6
CC(=O)c1ccc(OCCCC(=O)Nc2cc(Cl)ccc2-n2cncn2)cc1	-8.6	-1.0	-3.4	i	-13.3	-98.0	2.0	-5.2
COc1ccc(OCCSc2nc(C)nc3ccccc23)cc1	19.0	-4.0	-15.6	i	nt	11.3	7.0	-3.8
CCc1ccc(NC(=O)Cc2ccc(OC)cc2)cc1	-4.7	nt	nt	i	nt	nt	-2.2	-3.1
Cc1ccccc1P(=O)(c1ccccc1)c1ccccc1C	nt	2.0	0.1	nt	-4.7	-7.1	nt	nt
O=C(CSCc1c(Cl)cccc1Cl)NN=C1CCCC1	-9.6	0.4	4.3	i	nt	5.9	22.7	-10.7
O=C(N/N=C/c1cccc(O)c1)c1ccc(COc2ccccc2Br)cc1	87.2*	3.6	4.7	i	nt	12.8	3.5	-2.2
COc1cccc(/C=N/NC(=O)CNC(=O)COc2ccccc2)c1O	55.1	3.3	2.9	i	nt	13.4	-6.1	4.3
CC(C)CC(N)c1csc(NC(=O)NCCc2ccccc2)n1 (stereo not given)	nt	-2.5	2.4	nt	-4.8	4.3	nt	nt
N#CCSc1nc2ccc(N3CCCCC3)cc2c(=O)n1Cc1ccccc1	59.8	5.5	3.2	nt	-20.6	-63.3	1.4	23.6
COc1ccc(-n2ncc3c(NCc4ccco4)ncnc32)cc1	0.7	3.1	-1.0	i	-17.4	-440.2	6.5	4.6
Cc1ccnc(NS(=O)(=O)c2ccc3ccccc3c2)n1	-10.6	-2.9	2.8	i	-5.7	nt	-1.8	4.1
CC(NC(=O)C1CCC(CNc2c(N3CCCCC3)c(=O)c2=O)CC1)c1ccccc1 (stereo not given)	-11.5	-3.3	-3.3	i	6.6	-34.4	-8.0	-4.2
Cc1cc(NC(=O)c2c(F)cccc2F)n(-c2nc3ccccc3[nH]2)n1	52.9	0.9	-7.1	i	-7.2	9.8	8.7	4.3
COC(=O)c1ccc(/C=N/OCC(=O)NC2CCCCCCC2)cc1	-6.3	-1.9	-2.7	i	-20.0	nt	-3.9	1.5
CN(C)C(=O)c1ccc(NC(=O)c2cncc(Br)c2)cc1	5.4	-5.2	-10.8	i	-19.5	-168.1	-8.8	-3.7
O=C(Nc1cccc(NC(=O)c2ccccc2F)c1)c1ccccc1	-5.0	2.0	1.9	i	-14.5	23.8	6.8	-4.0
COc1cccc(NC(=O)COC(=O)CCOc2ccccc2OC)c1	-13.5	2.2	1.8	i	nt	6.8	-3.5	47.5
Oc1c(CN2CCN(c3ccc(F)cc3)CC2)cc(Cl)c2cccnc12	138.2*	5.5	-5.7	i	-32.7	nt	-4.1	10.7
COc1ccnc(N=CNOCc2cccc(C(F)(F)F)c2)c1C#N	11.4	1.8	-0.1	i	nt	0.5	-2.8	-10.8
Cc1ccc(NC(=O)C(C)OC(=O)/C=C/c2ccccc2)cc1S(=O)(=O)N1CCOCC1 (stereo not given)	-4.3	1.0	-2.4	i	nt	-1.9	nt	nt
CC(C)c1ccc(C(=O)N2CCCCC2c2cc(C(=O)NCc3cccnc3)no2)cc1 (stereo not given)	nt	-2.8	1.5	nt	-4.5	10.6	nt	nt

Next section
SMILES	CSC inhib	MT1-MMP act inh	MT1-MMP act inh RFP	Rce1 inh	Yeast UUG start	Env fusion inh	PABP polyA inh	eIF4H FP inh	others
Cc1ccc2c(c1)-c1[nH]c(=S)ncc1CS2	-11.7	1.8	-0.2	nt	-3.5	-3.8	-8.0	-7.6
COc1ccc(NC(=O)C23CC4CC(C2)CC(n2cnc(Br)n2)(C4)C3)c(OC)c1	nt	1.9	-1.6	nt	8.0	nt	9.6	2.8
Cc1cc(Br)ccc1OCC(=O)NNC(=O)Cc1ccccc1	10.9	3.6	1.8	i	nt	-81.4	-3.7	-6.5
O=C(NC(=S)Nc1ccc([N+](=O)[O-])cc1O)C1CCCCC1	17.5	-2.1	-9.0	i	-18.3	-3.1	64.9	5.8	eIF4H FP inh retest=-0.3;PABP polyA inh retest=12.1
COCCNC(=O)C(c1cccs1)N(Cc1cccs1)C(=O)Cn1nnc2ccccc21 (stereo not given)	-18.8	6.6	5.9	i	-2.4	nt	7.8	-2.3
Cc1ccccc1C(=O)Oc1cccc(Nc2ncnc3ccccc23)c1	-9.6	0.4	-13.7	i	-0.2	nt	nt	nt
Cc1ccc(SCc2[nH]nc3c2C2(C(=O)N(C)c4ccccc42)C(C#N)=C(N)O3)cc1 (stereo not given)	-8.1	-6.0	-9.0	i	11.4	nt	6.3	1.3
Cc1cccc(N2CCN(C(=O)c3ccc4c(c3)c(C)c(C)n4C)CC2C)c1 (stereo not given)	59.9	0.3	-3.0	i	-5.5	8.5	-11.2	3.6
Cc1ccc(C2CC(c3ccc(Cl)cc3)=NNC2=O)cc1 (stereo not given)	-0.3	-1.5	-6.0	i	3.7	nt	-7.9	-1.8
C/C(=N\Nc1nccnc1Cl)c1c(F)c(F)c(F)c(F)c1F	-8.8	1.2	3.1	nt	nt	-13.5	-11.3	-6.9
COC(=O)[C@@]1(Cc2ccccc2)[C@H]2C(=O)N(Cc3ccccc3)C(=O)[C@H]2[C@H]2CN=C(SCC3CC3)N21	nt	-9.5	-12.8	nt	-3.6	31.4	nt	nt
CCOC(=O)C1=C(COC(=O)Cc2ccc(Br)cc2)NC(=O)NC1C (stereo not given)	0.8	4.1	5.9	nt	-9.3	-24.8	-2.3	-10.3
C=CCOc1cccc(C2C(C(=O)c3ccc(C)o3)=C(O)C(=O)N2c2nccs2)c1 (stereo not given)	-9.4	-36.2	-1.0	i	-19.2	-8.3	?	?
CCOC(=O)CSc1nc2cccnc2n1-c1ccc(F)cc1	-8.1	-2.2	0.1	i	-24.8	-42.7	11.9	-5.3
C/C(CC(=O)Nc1ccc2ccccc2c1)=N\NC(=O)c1ccc(O)c(O)c1	2.0	-4.2	-0.5	i	-19.4	10.0	1.0	-7.9
O=C(NC(c1ccccc1)c1c(O)ccc2ccccc12)c1ccccc1Cl (stereo not given)	18.6	-14.9	-11.8	i	-18.5	-24.9	1.6	3.9
NC(=O)Cn1nnc(-c2ccccc2NC(=O)c2cnccn2)n1	12.5	-0.4	-1.3	i	-8.3	nt	-4.7	3.7
COCCNC(=O)c1ccc(CS(=O)(=O)c2c(Cl)cccc2Cl)o1	-23.7	2.6	1.3	i	-20.5	3.6	?	-7.0
CCOC(=O)[C@@H]1[C@H]2COc3ccccc3[C@@H]2N2C(=O)N(c3ccc(Cl)cc3)C(=O)[C@@]12C	-14.7	0.8	0.7	i	-0.2	24.8	-9.2	-4.8
CCCCc1nc2cc(C(=O)N3CCNC(=O)C3)ccc2o1	-1.5	-0.1	3.4	i	-0.8	2.7	-8.5	-9.5
COc1ccc(CCNC(=O)c2ccc(CNS(=O)(=O)c3cccc(Cl)c3)cc2)cc1OC	12.6	5.5	0.1	i	-2.9	-7.0	10.6	-0.4
OCC1(Cc2ccccc2)CCN(CCCC2CCCC2)CC1	27.7	-0.3	0.2	i	-6.6	11.3	-5.2	1.4
COc1ccc(N2CCN(C(=O)CC(C)S(=O)(=O)c3ccc4c(c3)NC(=O)CO4)CC2)cc1 (stereo not given)	-4.8	-2.7	-20.9	i	-3.6	9.9	-3.0	-9.3
C=CCn1c(SCCCc2ccccc2)nc2c1c(=O)[nH]c(=O)n2C	-5.9	2.9	-4.4	i	-8.0	-98.2	-10.8	-12.0
CCOCCSc1n[nH]c(=O)n1CCc1ccccc1	-9.0	-1.5	-2.8	i	-18.1	23.5	9.7	-0.9

Next section.
SMILES	CSC inhib	MT1-MMP act inh	MT1-MMP act inh RFP	Rce1 inh	Yeast UUG start	Env fusion inh	PABP polyA inh	eIF4H FP inh	others
CCC(C)N(C(=O)c1csnn1)C(C(=O)NC1CCCC1)c1ccc(F)cc1 (stereo not given)	1.5	0.8	5.2	i	-2.8	25.7	13.0	-1.4
CC(C)CCN1C(=O)c2ccc(C(=O)Nc3ccc(O)cc3C(=O)O)cc2C1=O	-11.6	0.3	1.7	i	8.2	-6.6	55.1*	81.1*
CC[C@H](C)[C@@H]1NC(=O)c2cc([N+](=O)[O-])cc(I)c2SC[C@@H](C(N)=O)NC(=O)[C@H](CCCCN)NC1=O	-10.1	nt	nt	nt	nt	13.3	-10.7	-2.2
N#Cc1ccccc1OCC(=O)Nc1ccc(N2CCOCC2)cc1N1CCOCC1	nt	-0.6	2.8	nt	10.3	6.1	nt	nt
O=C1OC2(CCCCC2)OC(=O)C1=CNc1ccc2c(c1)OCO2	16.5	-4.0	3.3	i	-4.3	34.0	6.8	-1.2
CCn1c(C)cc(=S)c2ccccc21	35.7	11.7	12.2	i	-2.3	12.3	21.0	-0.3

Sorted by count of non-hydrogen atoms (ascending): three of the compounds above.
SMILES	CSC inhib	MT1-MMP act inh	MT1-MMP act inh RFP	Rce1 inh	Yeast UUG start	Env fusion inh	PABP polyA inh	eIF4H FP inh	others
O=C1OC2(CCCCC2)OC(=O)C1=CNc1ccc2c(c1)OCO2	16.5	-4.0	3.3	i	-4.3	34.0	6.8	-1.2
CC(C)CCN1C(=O)c2ccc(C(=O)Nc3ccc(O)cc3C(=O)O)cc2C1=O	-11.6	0.3	1.7	i	8.2	-6.6	55.1*	81.1*
CC[C@H](C)[C@@H]1NC(=O)c2cc([N+](=O)[O-])cc(I)c2SC[C@@H](C(N)=O)NC(=O)[C@H](CCCCN)NC1=O	-10.1	nt	nt	nt	nt	13.3	-10.7	-2.2

Quoted at random: 3 entries already listed.
SMILES	CSC inhib	MT1-MMP act inh	MT1-MMP act inh RFP	Rce1 inh	Yeast UUG start	Env fusion inh	PABP polyA inh	eIF4H FP inh	others
CCn1c(C)cc(=S)c2ccccc21	35.7	11.7	12.2	i	-2.3	12.3	21.0	-0.3
CC[C@H](C)[C@@H]1NC(=O)c2cc([N+](=O)[O-])cc(I)c2SC[C@@H](C(N)=O)NC(=O)[C@H](CCCCN)NC1=O	-10.1	nt	nt	nt	nt	13.3	-10.7	-2.2
CCC(C)N(C(=O)c1csnn1)C(C(=O)NC1CCCC1)c1ccc(F)cc1 (stereo not given)	1.5	0.8	5.2	i	-2.8	25.7	13.0	-1.4
